From PubChem
Mtb H37Rv: M. tuberculosis H37Rv growth inhibitors, H37Rv strain (AID 1626); M. tuberculosis H37Rv growth inhibition; higher % means a stronger effect; inhibition, % at 10 µM; hits with a dose series show IC50 in µM; 220,000 compounds, 0.95% hits;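 active = confirmed in a dose series; inconclusive = inhibition above 80% but not taken into the dose series; inactive = below 80% or under 30% at every dose of the series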;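 also: bacteria incubated seven days before Alamar blue readout; 0% = bacteria only wells and 100% = bacteria with antibiotic wells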
Mtb betalactam: beta-lactam sensitization of Mtb H37Rv, H37Rv; 330,000 compounds, 0.27% hits; AID 434955, 2010; inhibition, % at 25 µM; M. tuberculosis H37Rv growth with meropenem, percent inhibition; hits of this screen are not shown here;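 active = about 74% or more and at least 40 points above the plate without the antibiotic, then above 30% in a dose series; inconclusive = first-round hits that could not be retested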;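 also: growth measured after seven days incubation then overnight dye step; 0% = bacteria only wells and 100% = bacteria with antibiotic; twin plates without the antibiotic show which effects depend on it; some results filed as inactive read as strong as hits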
RecA intein inh: Mtb RecA intein splicing inhibitors, primary screen, biochemical, fluorescence, HTS; Protein RecA (Mycobacterium tuberculosis (strain ATCC 25618 / H37Rv)), P9WHJ3; cell-free RecA intein splicing; inhibition, %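 (about 9 µM by stock and volumes)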; 290,000 compounds, 0.75% hits; AID 2221, 2009; in the data active = inhibition above about 30%; inconclusive = no clear call, values can overlap the other calls;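 also: 0% = vehicle wells and 100% = reference inhibitor control wells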
Target sequence (P9WHJ3 whole entry, looked up): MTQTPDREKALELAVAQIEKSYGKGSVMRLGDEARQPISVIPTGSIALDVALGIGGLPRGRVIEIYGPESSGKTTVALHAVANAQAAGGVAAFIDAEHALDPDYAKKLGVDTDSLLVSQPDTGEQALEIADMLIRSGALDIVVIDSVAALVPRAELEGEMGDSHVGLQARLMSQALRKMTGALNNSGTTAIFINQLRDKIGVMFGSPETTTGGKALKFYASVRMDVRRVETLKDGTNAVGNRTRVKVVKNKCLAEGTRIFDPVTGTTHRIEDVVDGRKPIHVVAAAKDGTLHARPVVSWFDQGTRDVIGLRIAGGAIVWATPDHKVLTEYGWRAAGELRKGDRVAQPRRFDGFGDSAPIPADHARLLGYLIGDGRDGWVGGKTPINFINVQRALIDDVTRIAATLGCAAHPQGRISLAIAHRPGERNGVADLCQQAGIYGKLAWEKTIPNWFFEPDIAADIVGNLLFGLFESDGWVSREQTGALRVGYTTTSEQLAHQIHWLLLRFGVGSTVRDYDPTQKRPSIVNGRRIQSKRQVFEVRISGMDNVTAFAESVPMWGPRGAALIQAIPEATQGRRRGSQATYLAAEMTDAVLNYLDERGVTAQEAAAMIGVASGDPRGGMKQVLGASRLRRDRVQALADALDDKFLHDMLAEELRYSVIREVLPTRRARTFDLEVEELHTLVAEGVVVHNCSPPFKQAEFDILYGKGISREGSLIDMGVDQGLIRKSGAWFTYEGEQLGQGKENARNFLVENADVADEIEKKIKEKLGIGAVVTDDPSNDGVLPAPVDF
YopH PTP inh: YopH tyrosine phosphatase inhibitors, primary screen, biochemical, fluorescence Ex485/Em525; inhibition, %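 (about 10 µM by stock and volumes)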; 140,000 compounds, 0.16% hits; AID 898, 2007;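 active = inhibition of 50% or more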;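 also: controls were vehicle for no effect and minimum signal wells for full effect; inactives centre near -20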
Arbovirus inh: antivirals against arbovirus infection, primary screen, cell-based, full library, 10K replicate subset. arbovirus infection cell-based antiviral screen. inhibition, % at 10 µM. 200,000 compounds, 0.37% hits;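 active = inhibition from about 30%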;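 also: bluetongue infection of BSR cells; cell survival read as ATP light after 72 h; 0% = infected wells without compound and 100% = uninfected wells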
Arbovirus inh repeat: further read-out of Arbovirus inh, marked with its call; inhibition, %; measured here: 10K subset replicate screen; many hits read low in the repeat;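 first of two repeat runs on a subset; 0% = infected and 100% = uninfected wells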
Active calls of the source: *; u = inconclusive; x = no result given. A portion of the library; the hit share may differ from the screen's.

SMILES	Mtb H37Rv	Mtb betalactam	RecA intein inh	YopH PTP inh	Arbovirus inh	others
Cc1ccc(OCc2nnc(SCC(=O)c3cccc([N+](=O)[O-])c3)n2C)cc1	3%	10	-1.7	-33	8
COc1ccc(-c2nc(CS(=O)CC(=O)NCCN3CCCCCC3)c(C)o2)cc1OC (configuration not stated)	x	-4	-1.0	x	x
COC(=O)CNC(=S)NC(=O)c1ccc(C(C)(C)C)cc1	76%	94	-0.9	x	5
CCC(=O)Nc1nnc(S(=O)(=O)N(CC)c2ccc(Cl)cc2)s1	x	6	-0.9	x	x
Cc1ccc([N+](=O)[O-])cc1NC(=O)CSc1n[nH]c(-c2cccnc2)n1	x	0	-4.5	x	x
Cn1c(=O)[nH]c(=O)c2c1nc(NCCCO)n2CCCc1ccccc1	2%	7	1.5	10	3
Cc1cc(O)cc2c1C(c1ccc(F)cc1)CC1(CC(C)(C)NC(=S)N1)O2 (configuration not stated)	-3%	3	2.5	x	3
O=C(Nc1ccnn1C1CCN(CCCc2ccccc2)CC1)c1ccccc1Cl	x	-4	-1.8	x	x
Cc1nn(CC(=O)Nc2ccc(C#N)cc2)c(C)c1[N+](=O)[O-]	0%	-13	0.6	x	6
CN1C(=O)/C(=C/c2ccc(C(=O)NC3CCCC3)cc2)Oc2ccccc21	24%	95	-35	x	-9
CN1CCN(CC(=O)Nc2ccccc2C(F)(F)F)CC1	x	9	0.0	x	x
O=C(COc1ccccc1)Nc1ccc(F)cc1	x	57	-1.9	x	x
CC1(C)Cc2c(C#N)c(SCCO)nc(N3CCOCC3)c2CO1	x	-5	0.0	x	x
Cc1ccc(/C=N/NC(=O)Cn2ccc(C(F)(F)F)n2)o1	0%	-5	-3.4	x	18
CC(C)(CO)NC(=O)CC1C(=O)NCCN1CC(c1ccccc1)c1ccccc1 (configuration not stated)	-2%	-4	-2.1	x	4
O=C1NC(=O)N(Cc2ccco2)C(=O)/C1=C\c1cccn1CCOc1ccccc1	x	9	4.5	x	x
O=C(Oc1cccccc1=O)c1ccccc1	-1%	74	-1.5	x	2
Cc1ccc(S(=O)(=O)c2ccccc2)cc1S(=O)(=O)N1CCOCC1	-9%	-5	-1.5	-6	1
COc1ccc(CCc2nnc(CCC(=O)NCCc3ncccc3C)o2)cc1	-10%	-5	1.2	x	7
O=C(CSc1ccc(Cl)cc1)NCc1ccncc1	-8%	-8	-2.0	x	0
CCCN1Cc2cccc(C(=O)NCc3ccc(C)cc3)c2C1=O	8%	2	0.6	x	-5
CC(C)(C)c1cc(=O)n2c(nc3ccccc32)[nH]1	2%	5	x	-6	6
CCCS(=O)(=O)N1CCC(CCOc2ccccc2)(C(=O)OCC)CC1	2%	11	-0.5	x	5
CC(=O)NCCOc1cccc(OCCNC(C)=O)c1	-2%	-3	-2.4	-27	-1
COCCn1c(SCC(=O)N2CCC(C)CC2)nc2c([nH]c3ccccc32)c1=O	x	u	5.1	x	x
O=C(Nc1ccc2c(c1)OCCO2)C1c2ccccc2C(=O)N2CCc3ccccc3C12 (configuration not stated)	5%	-1	3.1	4	6
Brc1ccc2nc(-c3c[nH]c4ccccc34)cn2c1	8%	16	4.3	x	-5
Clc1cccc(CN2CCSCC2)c1	x	-4	-0.4	x	x
Nc1ccc2nc3c(=O)n(C4CCCCC4)c(=O)[nH]c3nc2c1	0%	2	-188	x	x
O=C(NNC(=O)C1[C@H]2CCCC[C@@H]12)NC1CCCCC1 (some centres not stated)	0%	-3	-1.7	-29	-8
O=C(CNC(=S)N(Cc1ccccc1)Cc1cccnc1)NCc1ccccc1	1%	-4	-1.8	x	6
COc1cccc(C(=O)COC(=O)c2ccc(NC(C)=O)cc2)c1	-8%	-2	1.7	-35	-5
COc1cccc2sc(N3CCN(C(=O)C4COc5ccccc5O4)CC3)nc12 (configuration not stated)	x	26	1.0	x	x
COc1cc(NC(=O)C2CCN(S(=O)(=O)c3cnc[nH]3)CC2)cc(OC)c1OC	-4%	7	-0.3	-19	3
Cc1ccc(NS(=O)(=O)c2ccc3c(c2)NC(=O)C(C)C(=O)N3)c(Cl)c1 (configuration not stated)	x	0	-0.9	x	x
O=C(O)C1=C[C@@H](c2ccc3c(c2)OCO3)C[C@@H](OCc2ccc(CO)cc2)O1	-3%	-6	-2.6	x	-3
Cc1ccc(S(=O)(=O)N2CCN(C(=O)N3CCOCC3)C2C(C)C)cc1 (configuration not stated)	0%	-8	-2.6	-36	-4
CC(C)C1CC(=O)NC(SCC(=O)Nc2ccc(Br)cc2)=C1C#N (configuration not stated)	8%	7	1.4	-35	-13
CC(C)C(=O)N1CCN(c2nc3ccc(Cl)cc3s2)CC1	x	8	3.4	x	x
O=C(CN(c1ccc(F)cc1)S(=O)(=O)c1ccc2c(c1)OCCO2)Nc1cccnc1	2%	9	x	6	-4
O=C(CSc1ccccc1)Nc1ccccc1N1CCOCC1	9%	1	3.0	-28	2
Cc1ccc[n+](C(C)C(=O)Nc2ccc(C)c(C)c2)c1 (configuration not stated)	x	2	4.6	x	x
O=C(Nc1ccc(NC(=O)C2CCCN2C(=O)OCc2ccccc2)cc1)c1ccco1 (configuration not stated)	1%	-7	-2.7	-22	-2
COc1ccc(-c2nc3ccccc3c(=O)n2CC(C)C)cc1	x	-1	0.8	x	x
Cc1cc(NC(=O)c2ccccc2Cl)no1	2%	-8	-1.3	-72	-2
COc1ccc(NC(=O)CCNC(=O)Cn2cnc3sc4c(c3c2=O)CCCC4)cc1OC	x	3	0.3	x	x
O=C(COC(=O)Cn1cnc2ccccc2c1=O)Nc1ccc2c(c1)OCO2	0%	-1	-1.3	x	-6
CCC1(c2ccc(F)cc2)NC(=O)N(CC(=O)N2CCOCC2)C1=O (configuration not stated)	1%	-8	1.6	-27	x
Cc1ccc(NC(=S)N2CCN(C(=O)C3CCCO3)CC2)c(C)c1 (configuration not stated)	-2%	-3	1.8	-25	2
CC(=O)N/C(=N\OCc1ccc(Br)cc1)c1nonc1NC(C)=O	-3%	-5	-1.1	-9	-3
COC(=O)c1c(NC(=O)c2c(-c3ccccc3Cl)noc2C)sc2c1CCC2	x	-2	8.6	-19	-6
CC(=O)N(CCC(Cc1ccccc1)c1ccc2c(c1)OCO2)Cc1ccc(Cl)cc1 (configuration not stated)	-1%	10	3.8	-29	-24
CC12COC3(C(=O)NCCc4ccccc4)CC1CCC32C (configuration not stated)	-5%	3	-1.6	-20	-1
COc1ccc2nnc(-c3ccccc3)n2n1	-6%	-3	-1.9	-8	1
O=C(COC(=O)Cc1cccs1)Nc1ccccc1	-1%	-4	-2.6	-53	2
O=C1CCC([N+](=O)[O-])C(c2ccccc2Cl)N1 (configuration not stated)	4%	4	-0.7	-14	3
C/C(=N\NC(=O)c1ccc(Br)cc1)c1cccc(NC(=O)c2cccnc2)c1	2%	13	-0.4	x	-6
COc1ccc2nc(/C=N/NC(=O)[C@@H]3CCCN3C(=O)OC(C)(C)C)ccc2c1	-1%	-10	0.7	x	x
C=CCn1c(CNC(=O)c2cccs2)nnc1SCc1ccc(Cl)cc1Cl	7%	4	0.8	-32	63*
COc1ccccc1CN1C[C@@H]2C[C@@H](c3[nH]c4c(C)cccc4c3C)N3CCC[C@@]23C1=O	27%	-2	2.6	x	1

Remaining list, next part
SMILES	Mtb H37Rv	Mtb betalactam	RecA intein inh	YopH PTP inh	Arbovirus inh	others
Cc1cc(NC(=O)CCC(=O)N(CC2CCCO2)C(C(=O)NC2CCCC2)c2cccnc2)no1 (configuration not stated)	-7%	-8	1.9	-98	4
COc1cc(NC(=O)c2ccccc2NS(=O)(=O)c2ccc(Cl)s2)cc(OC)c1	-2%	4	1.3	-32	0
O=C(N/N=C/c1cc(Cl)ccc1O)c1ccncc1	u	100	-0.7	x	x
CCOc1ccccc1N(CC(=O)NCCSCc1ccco1)S(=O)(=O)c1ccccc1	x	-7	0.9	x	x
CC(=O)Nc1ccc(OC(=O)c2c(-c3ccccc3Cl)noc2C)cc1	11%	-3	4.5	-5	-3
CCc1cccc(N(C(=O)c2csnn2)C(C(=O)NC2CCCCC2)c2cccnc2)c1 (configuration not stated)	x	7	-3.6	x	x
COCCNc1nnc(SCC(=O)c2c[nH]c3ccccc23)s1	6%	5	0.0	2	5
COc1ccc(-c2cc(C(=O)N3CCN(c4ccc(F)cc4)CC3)no2)cc1OC	x	8	0.9	x	x
CC1CCc2sc(NC(=O)c3ccc(N4C(=O)CCC4=O)cc3)c(C(N)=O)c2C1 (configuration not stated)	x	2	-2.7	x	x
N=C(N)N1CCc2ccccc2C1	x	2	-1.9	-18	3
Cc1ccc(C(O)CCc2ccc(N)cc2)cc1 (configuration not stated)	x	7	2.0	x	x
Cc1ccc(N=Cc2c(C)[nH]n(-c3ccccc3)c2=O)nc1	-10%	-4	1.6	x	x
CS(=O)(=O)N1CCN(C(=O)c2ccccc2)C1	-11%	-11	-36	-15	-7
CC(C)NS(=O)(=O)c1ccc(NC(=O)Cc2ccsc2)cc1	x	2	-0.1	x	x
Cc1nc(=S)c2ccccc2[nH]1	-5%	4	4.3	-15	0
CN(CCCn1c(=S)[nH]c2ncccc2c1=O)Cc1ccccc1	-6%	4	1.2	-23	2
Cc1cccc(C(=O)N2CCCC(N3CCN(Cc4ccc5c(c4)OCO5)CC3)C2)n1 (configuration not stated)	x	3	-3.3	x	x
Cc1cccc(CN2CCCC(C(=O)c3ccc4c(c3)OCO4)C2)n1 (configuration not stated)	10%	31	-1.0	x	-1
O=C(O)COc1ccccc1/C=N/n1c(C2CCCCC2)n[nH]c1=S	x	-3	-2.0	x	x
CCOC(=O)c1c(NC(=O)c2cccs2)sc(CC)c1-c1cccs1	9%	76	0.4	-16	-7
O=c1n(Cc2ccc(F)cc2)nc2n1-c1ccccc1SC2	4%	-6	2.7	x	x
Cc1cc2ncn(CCOc3ccccc3)c2cc1C	x	70	6.5	-16	10
O=C(O)C1CCCCC1C(=O)Nc1ccc(-c2ccccc2)cc1 (configuration not stated)	u	1	-0.1	x	9
Cc1cc(C(=O)N2CCc3c([nH]c4ccccc34)C2c2cccc(Cl)c2)nn1C (configuration not stated)	12%	13	1.4	x	-16
CCOC(=O)/C(C#N)=C/c1ccc(N2CCN(C)CC2)cc1	-6%	2	-2.6	-60	-1
CC(C)(C)C1CCc2c(sc(NC(=O)c3cccs3)c2C(N)=O)C1 (configuration not stated)	3%	16	-22	4	2
O=C(NNc1cccc(Cl)c1)c1cccnc1Oc1ccccc1	74%	99	-0.4	x	x
CCN(CC)c1ccc(C=C2C(=O)OC(c3ccccc3)OC2=O)cc1 (configuration not stated)	-2%	-6	2.4	x	6
Cc1ccc(C)c(NC(=O)CN(C)C(=O)c2cc3c(s2)CCCCC3)c1	x	-11	1.5	x	x
CC(C)(C)N1C(=O)c2ccccc2NC(=O)N1Cc1ccccc1	3%	-7	1.6	-1	0
O=C(CCN1CCOCC1)Nc1c(-c2ccccc2)c2cc(Br)ccc2[nH]c1=O	-4%	4	-3.7	-24	1
Cn1c(SC2=CS(=O)(=O)c3ccccc32)nc2ccccc21	55%	95	-1.2	-34	-9
Cc1ccc(N2C(=O)c3ccccc3C(C)(C)C2=O)cc1	x	-12	0.9	x	x
O=C(c1ccc(COc2ccccc2Cl)o1)N1CCN(c2ccccc2)CC1	2%	2	15	-32	9	Arbovirus inh repeat=-21
COc1ccc2c(c1O)Cc1ccccc1C2=O	2%	22	0.4	-13	-12
